Anaer choline gr = choline-fed anaerobic bacterial growth inhibition. Gram-negative bacterium anaerobic choline minimal medium, absorbance growth; active compounds read low; many inactives read as strong as hits in the columns shown. calls only. hit rate 0.2% among 55,000. AID 1963822;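 active = growth z-score on choline under -2 at 7 or 20 h with little or no fall on glycerol, limits in tiers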;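 note: stock transfer was 300 nL into about 50 µL; the organism is E. coli; final concentration not given here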
Anaer choline gr early = recorded beside Anaer choline gr, whose call it bears; z-score; measured here: choline growth z-score, timepoint 1;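 score of optical density at 7 h as mean of two plates; lower means less growth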
* = called active by the depositor; i = inactive; & = joins results of further samples. A portion of the library; rates above refer to the full screens.

The opening two compounds, ahead of the listing:
SMILES | Anaer choline gr | Anaer choline gr early
CCc1ccc(-c2[nH]nc3c2C(c2ccc(OC)cc2)C2=C(CC(C)(C)CC2=O)N3)cc1 (stereo unspecified) | i | 0.4
Cc1cccc(NC(=O)CN2C(=O)CCc3cc(S(=O)(=O)N4CCC(C)CC4)ccc32)n1 | i | 0.76

The list itself, from the start:
SMILES | Anaer choline gr | Anaer choline gr early
CCc1ccc(-c2[nH]nc3c2C(c2ccc(OC)cc2)C2=C(CC(C)(C)CC2=O)N3)cc1 (stereo unspecified) | i | 0.4
Cc1cccc(NC(=O)CN2C(=O)CCc3cc(S(=O)(=O)N4CCC(C)CC4)ccc32)n1 | i | 0.76
Cc1cc2c(cc1S(=O)(=O)N1CCCCC1C)OCC(=O)N2Cc1noc(C2CC2)n1 (stereo unspecified) | i | -0.59
O=C(Nc1ccc2c(c1)Sc1ccccc1C(=O)N2C1CC1)C1CC(=O)N(c2ccccc2)C1 (stereo unspecified) | i | -0.75
O=S(=O)(c1ccc2c(c1)-c1oncc1CO2)N1CCN(c2ccccn2)CC1 | i | -0.31
Cc1ccc(-c2ccc(N3CCOCC3)nn2)cc1S(=O)(=O)N1CCCC1 | i | 0.27
CCSc1nnc2c(S(=O)(=O)N3CCOCC3)cccn12 | i | 0.02
O=C(NC1CCCCC1)C1CCN(c2cncnc2N2CCCC2)CC1 | i | 0.83
Cn1c(=O)c(=O)n(C)c2cc(N3CCOCC3)c(NC(=O)c3ccccc3Cl)cc21 | i | -0.03
O=C(NCCn1c(-c2ccncc2)nc2cccnc21)c1ccc(F)cc1 | i | -0.42
COc1ccc(C2CC(=O)Nc3c2c(C)nn3-c2ccc3nnc(C)n3n2)c(OC)c1 (stereo unspecified) | i | 0.23
CCNc1cc(C)nc(N2CCN(S(=O)(=O)c3ccc(F)cc3)CC2)n1 | i | 0.08
O=C(Nc1ccc(Br)cc1)N1CCN(CCn2cnc3cccnc32)CC1 | i | -0.24
CCCCCCCC/C=C\CCCCCCCC(=O)NCCO | i | 0.56&0.66
O=C(CCC(=O)N1CC=C(c2c[nH]c3ccccc23)CC1)NCCN1CCCC1 | i | -1.8
CCOC(=O)c1cc(S(=O)(=O)NCCC(=O)NC2CCC(C)CC2)cn1C (stereo unspecified) | i | 0.71
CC(C)NC(=O)c1cc2ccc3cccnc3c2[nH]1 | i | -0.21
O=C(c1cccs1)N1CCC(Oc2cc(N3CCCC3)ncn2)C1 (stereo unspecified) | i | 0.15
COc1ccc(-n2cc(C(=O)Oc3ccc4cnccc4c3)c3cc(OC)c(OC)cc3c2=O)cc1 | i | 0.97
O=[N+]([O-])c1cccc2c(Br)[nH]nc12 | i | -1.4&-2&-0.87
CC(C(=O)NCc1ccccc1)C1Sc2ccccc2N(Cc2ccccc2F)C1=O (stereo unspecified) | i | 0.77
CCOC(=O)c1c(C)[nH]c(C(=O)N2CCC(CC(=O)NCc3ccccc3)CC2)c1C | i | 1
CN(CC(=O)NCC1CCCO1)S(=O)(=O)c1cc2c(cc1Cl)NC(=O)CO2 (stereo unspecified) | i | -0.28
COCc1nnc(C(=O)Nc2ccc(C(=O)NCCCN(C)c3ccccc3)cc2)s1 | i | 1.3
Cc1cccc(-c2cncc(C(=O)NCc3ccc(Cl)cc3)c2)c1 | i | 0.82
COc1cccc(NC(=O)c2ccc(S(=O)(=O)c3ccccc3)nc2)c1 | i | -3.6
CCOC(=O)c1ccccc1NC(=O)CSc1nc(=O)[nH]c2c1CCC2 | i | 0.92
COc1ccc(CNC(=O)c2ccc3c(c2)c(C)c(C)n3C)cc1 | i | -0.56
Cc1nc(-c2ccccc2)ncc1C(=O)Nc1cccc(F)c1 | i | -0.12
CCOC(=O)c1ccc(NC(=O)NCc2c(C)nn(CC)c2C)cc1 | i | 1.1
COc1cccc(-n2nnc(-c3nsc(Nc4ccccc4)n3)c2C)c1 | i | 1.4
CCC(C)NC(=O)c1ccc(-c2ccc(C)cc2)nc1 (stereo unspecified) | i | -0.79
Cc1cccc(NC(=O)Nc2cccc(CCc3nc4ccccc4n3C)c2)c1C | i | 0.66
NC[C@H]1O[C@H](O[C@H]2[C@H](O)[C@@H](O[C@H]3O[C@H](CO)[C@@H](O)[C@H](N)[C@H]3O)[C@H](N)C[C@@H]2N)[C@H](N)C[C@@H]1O | i | 0.2&-0.08
CN(CCCNC(=O)c1nc(-c2nn(-c3ccc(F)cc3)c(=O)n(C)c2=O)no1)c1ccccc1 | i | 0.15
O=C(NCc1ccc(Cl)cc1)c1ccc2c(c1)N(Cc1ccccc1)CCS2 | i | -0.22
O=C1c2[nH]nc(-c3ccccc3O)c2C(c2ccc(Br)cc2)N1CC1CCCO1 (stereo unspecified) | i | -0.61
O=C1COc2ccc(S(=O)(=O)N3CCc4ccccc4C3)cc2N1Cc1noc(C2CCC2)n1 | i | 1.4
O=C(CN1N=NC2C(=O)N(c3ccc(F)c(Cl)c3)C(=O)C21)Nc1ccc(F)cc1F (stereo unspecified) | i | -1.8
CCCCCC(=O)/C=C/C=C\CCCCCCCC(=O)O | i | 0.81
O=C(NCCn1c(C(F)(F)F)nc2cccnc21)Nc1ccccc1Br | i | -0.68
COC(=O)CCc1sc(Nc2ccc(OC)cc2)nc1-c1ccc(OC)cc1 | i | -0.08
Cn1cc(C(=O)Nc2cc(F)ccc2F)c2[nH]c(=O)n(-c3ccc(Cl)cc3)c(=O)c21 | i | -0.33
Cc1ccccc1COC(=O)c1nnn(-c2ccccc2)c1C | i | -0.31
CCc1nn2c(c1-c1ccc(C)c(S(=O)(=O)NC3CC3)c1)NC(=O)CCC2=O | i | -0.96
CCc1cc(Sc2ccc(NC(=O)Nc3ccc(Br)cc3F)cc2)n2ncnc2n1 | i | 1.3
CN(CCc1noc(-c2ccc(C(=O)N3CCCC3)cc2)n1)C(=O)Nc1ccccc1 | i | -0.26
COc1ccc(C(=O)Nc2noc3ccccc23)cc1 | i | 0.47
O=c1[nH]cnc2c1ncn2[C@H]1CC[C@@H](CO)O1 | i | -0.21&-0.59
CC(C(=O)O)n1nnc2ccccc21 (stereo unspecified) | i | 0.44
O=c1cc(N2CCOCC2)nc2n1CCCS2 | i | -1.3
C=CCn1c(=O)c(=O)n(Cc2ccc(C(=O)NCCc3ccccc3C)cc2)c2ccccc21 | i | 0.78
Cc1nn(-c2nc3ccccc3o2)c2c1C(c1ccc(F)cc1Cl)CC(=O)N2 (stereo unspecified) | i | -0.7
Cc1cc(C(=O)N2CCc3ccccc3C2)on1 | i | -1.1
COc1ccc(C2CC(=O)C3=C(C2)Nc2onc(C)c2C3c2cccc(OC)c2OC)cc1 (stereo unspecified) | i | -0.68
O=C(C1CCCCC1)N1CC(OCc2ccc(F)cc2)C1 | i | -0.44
Cc1nc(CNC(=O)[C@H]2CCCN2S(=O)(=O)c2cccs2)cs1 | i | -0.85
NC(C(=O)NC1C(=O)N2C(C(=O)O)=C(CSc3cn[nH]n3)CSC12)c1ccc(O)cc1 (stereo unspecified) (tested in a mixture with another compound) | i | -0.03
O=C(O)c1ccc2c(=O)nc3c(-c4cccc(F)c4)n[nH]n3c2c1 | i | 0.57
Cc1cccc(-c2nnn3c2nc(NCCCN2CCCC2=O)c2cc(Cl)ccc23)c1 | i | 0.83

Quoted at random: 5 compounds from above, in no set order.
SMILES | Anaer choline gr | Anaer choline gr early
Cc1nn(-c2nc3ccccc3o2)c2c1C(c1ccc(F)cc1Cl)CC(=O)N2 (stereo unspecified) | i | -0.7
CC(C(=O)O)n1nnc2ccccc21 (stereo unspecified) | i | 0.44
O=C(NCCn1c(C(F)(F)F)nc2cccnc21)Nc1ccccc1Br | i | -0.68
C=CCn1c(=O)c(=O)n(Cc2ccc(C(=O)NCCc3ccccc3C)cc2)c2ccccc21 | i | 0.78
Cc1cccc(-c2nnn3c2nc(NCCCN2CCCC2=O)c2cc(Cl)ccc23)c1 | i | 0.83

Compound profiles, from the list above. Order of screens: Anaer choline gr | Anaer choline gr early
`Cc1cccc(-c2nnn3c2nc(NCCCN2CCCC2=O)c2cc(Cl)ccc23)c1` reads i | 0.83
`O=C(NCCn1c(C(F)(F)F)nc2cccnc21)Nc1ccccc1Br` reads i | -0.68
`O=C(C1CCCCC1)N1CC(OCc2ccc(F)cc2)C1` reads i | -0.44

Going on with the list.
SMILES | Anaer choline gr | Anaer choline gr early
COCCNC(=O)CCc1nnc2n(CC(C)C)c(=O)c3sccc3n12 | i | -0.53
CN(C)c1ncncc1N1CCC(C(=O)NCCCN2CCOCC2)CC1 | i | -0.39
O=C(O)CN1CC(c2ccccc2)CC1=O (stereo unspecified) | i | 1.1
O=C(C1CC(=O)N(C2CCCCCC2)C1)N1CCCC1 (stereo unspecified) | i | 0.53
Cc1ccc(Nc2cc(C)nc(N3CCN(C(=O)Nc4cccc(C)c4)CC3)n2)cc1 | i | 0.32
COCCn1c(C2CCN(S(=O)(=O)c3ccc(Cl)s3)C2)nc2cccnc21 (stereo unspecified) | i | -0.25
O=C(C1CCN(S(=O)(=O)c2cnc[nH]2)CC1)N(CCc1ccccc1)Cc1ccccc1 | i | 0.58
COc1ccc(CNC(=O)CCS(=O)(=O)c2ccc3nc(C)sc3c2)cc1 | i | 3.6
C#CC1(O)CC[C@H]2[C@@H]3CCC4=CCCC[C@@H]4[C@H]3CC[C@@]21C (stereo partly specified) | i | 0.2
CC(C)CNC(=O)N1CCN(Cc2nc3ccc(Cl)cc3o2)CC1 | i | -0.5
COc1ccc(NC(=O)c2cccc(-c3noc(C)n3)c2)c(OC)c1 | i | -0.46
O=C1c2ccccc2C(=O)N1CCN1CCOCC1 | i | 1.2
CC(C)NC(=O)c1cnn2c3c(cnc12)C(=O)CC(C)(C)C3 | i | -2.2
Cc1cccc(N2C(=O)N(c3ccccc3)C3CS(=O)(=O)CC32)c1 (stereo unspecified) | i | 0.28
CC(=O)Nc1ccc(-c2noc(C3CCCN(C(=O)c4ccsc4)C3)n2)cc1 (stereo unspecified) | i | -1.9
Cc1ccc(NC(=O)N2CCN(c3cc(=O)n4nc(-c5ccccc5C)sc4n3)CC2)cc1C | i | -0.14
Cc1nc(-c2cc(S(=O)(=O)NCCN3CCC(C)CC3)c(C)s2)sc1C | i | -0.88
COC(=O)C1=C(c2ccccc2)c2cc(Cl)ccc2S(=O)(=O)N1CC(=O)Nc1ccc(Cl)cc1 | i | 0.2
CCCCC1CCC(c2nc(-c3ccncc3)no2)CC1 (stereo unspecified) | i | 0.64
CC(C)NC(=O)CCn1c(=O)c2ccccc2n2c(=O)[nH]nc12 | i | 1.4

Other records.
Screens in order – Anaer choline gr	Anaer choline gr early
CCOC(=O)c1[nH]c(C)c(CCC(=O)N2CCCC(C(=O)NCCN3CCOCC3)C2)c1C (stereo unspecified)
 : i	-0.63
Cn1ccc2cc(S(=O)(=O)N3CCN(C(=O)Nc4ccccc4)CC3)ccc21
 : i	-0.37
COC(=O)c1ccc(C2C3=C(CC(c4ccccc4)CC3=O)Nc3onc(C)c32)cc1 (stereo unspecified)
 : i	-0.94
N#Cc1nc(-c2ccc(S(=O)(=O)N3CCCC3)cc2)oc1N1CCOCC1
 : i	-1.1
COC(=O)c1ccc(NC(=O)C2=Cc3cc(C)ccc3OC=C2)cc1
 : i	1.2
CN(C)c1ccc(C(CNC(=O)c2ccc(Cl)cc2)N(C)C)cc1 (stereo unspecified)
 : i	-0.53
O=C(NCc1cccc(F)c1)c1ccc(-n2nnc3cccnc32)cc1
 : i	0.8
Cc1ccc2[nH]cc(CCNC(=O)CC3CCN(C(=O)C4CCCCC4)CC3)c2c1
 : i	-0.22
CSc1nc2ccc(NS(=O)(=O)c3ccc4c(c3)OCCO4)cc2s1
 : i	-0.41
COCCn1nnc2cc(S(=O)(=O)N3CCCCC3C(=O)Nc3cccc(F)c3)ccc21 (stereo unspecified)
 : i	-1.4
Cc1sc(-c2ccno2)cc1S(=O)(=O)NCCC1=CCCCC1
 : i	-0.05
Cc1cc(-c2[nH]c3c(c2-c2cc(C)sc2C)c(=O)n(C)c(=O)n3C)c(C)s1
 : i	-0.41
Cc1[nH]c2ccccc2c1C(=O)Cn1nc2n(CC(C)C)c(=O)c3ccccc3n2c1=O
 : i	-0.34
Cn1c(=O)c2c(-c3ccc(Cl)cc3)n(-c3ccccc3N)cc2n(C)c1=O
 : i	-0.89
Cc1csc(-c2cc(S(=O)(=O)Nc3ccc(F)cc3F)cn2CC(=O)N2CCCC2)n1
 : i	1.4
Cn1nnc2c(Nc3ccc(Br)cc3)ncnc21
 : i	-0.06
Cc1ccc(-c2nc3c4c5c(sc4ncn3n2)C(C)(C)NC(C)(C)C5)cc1
 : i	0.67
Cc1cc2cc(CO)c(=O)[nH]c2cc1C
 : i	-1.5
COc1ccc(S(=O)(=O)NC(c2nnc(-c3ccccc3)o2)c2ccccc2Cl)cc1OC (stereo unspecified)
 : i	-1.4
CCCn1cnnc1C1CCCN(C(=O)c2cccn2C)C1 (stereo unspecified)
 : i	0.82
O=C(NCc1ccccc1Cl)c1cccn2c(=O)c3ccccc3nc12
 : i	-1.1
COc1ccc(Nc2cc(C)nc3c(C)c(-c4ccc(OC)c(OC)c4)nn23)cc1
 : i	0.96
Cn1c(=O)c(-c2noc(CCC(=O)NC3CCCCC3)n2)nn(-c2ccccc2)c1=O
 : i	-0.59
CC(C)n1cnc(S(=O)(=O)N2CCCC(C(=O)N3CCN(c4ccccn4)CC3)C2)c1 (stereo unspecified)
 : i	0.14
O=C(Cn1nc2c3sccc3ncn2c1=O)Nc1ccc(F)cc1
 : i	-2
Cc1ccc(-c2c(NCC3CCCO3)c(=O)c2=O)cc1 (stereo unspecified)
 : i	-0.5
OC(c1ccccc1)(c1ccccc1)C1CCN(c2ccc3nnc(-c4ccccc4)n3n2)CC1
 : i	0.44

Bioassay records (PubChem)
